Screens (PubChem BioAssay)
CtBP-E1A blk = CtBP/E1A binding inhibition. AlphaScreen GST-E1A/His-CtBP binding, 1536-well; active compounds read low; control for the full effect not named in the record. activity change, % (test concentration not listed). hit rate 0.49% among 340,000; in the data active means activity change below about -65%; inconclusive means about -30% to -65%; inactive means above about -30%; also: % is scaled to controls: 0 for no effect and ±100 for the full control effect
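In 5 uL wells, 23 nL compound meets equimolar GST-E1A and His-CtBP (5X stock 125 nM each) for 2 h, 37 °C. Beads (5X, 50 ug/mL) then 1 h, 37 °C, dark.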
D2 PAM = human D2 receptor positive allosteric modulation; P14416; DiscoveRx D2 beta-arrestin cells, luminescence, 90 min; 100% = 57 uM dopamine signal; potentiation, % (test concentration not listed); hit rate 0.23% among 360,000; AID 624464; active = potentiation of 50% or more; inconclusive = 30% to 50%; inactive = 30% or less;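 also: compound concentration not given in the record; tested on top of an EC20 dose of dopamine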
Target sequence (P14416 whole entry, looked up): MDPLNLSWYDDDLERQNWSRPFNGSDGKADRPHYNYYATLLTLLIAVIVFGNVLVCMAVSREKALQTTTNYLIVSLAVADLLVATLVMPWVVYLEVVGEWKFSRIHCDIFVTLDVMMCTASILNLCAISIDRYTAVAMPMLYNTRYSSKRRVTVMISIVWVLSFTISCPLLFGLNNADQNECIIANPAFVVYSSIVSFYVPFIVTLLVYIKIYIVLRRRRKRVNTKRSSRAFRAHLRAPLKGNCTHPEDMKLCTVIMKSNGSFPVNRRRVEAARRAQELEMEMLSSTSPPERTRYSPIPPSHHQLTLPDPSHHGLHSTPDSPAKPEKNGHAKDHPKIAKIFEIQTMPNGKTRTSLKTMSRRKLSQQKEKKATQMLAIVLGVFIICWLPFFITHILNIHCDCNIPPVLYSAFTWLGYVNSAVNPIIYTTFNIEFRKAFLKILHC
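PathHunter D2 cells, attached overnight at 37 deg C, received compound in DMSO plus dopamine at EC20 (50 nM final) for 90 min at 37 deg C. Beta-arrestin recruitment was read as luminescence after 1 h with detection reagent at ambient temperature.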
TRPV1 PAM = human TRPV1 potentiation; TRPV1-expressing cells, Fluo-8 calcium influx, capsaicin EC20 potentiation; host cell line not named in the record; control for the full effect not named in the record; hit rate 0.02% among 320,000; AID 540277; potentiation, % at 8.33 µM; active means potentiation above 80%; inconclusive means 30% to 80%; inactive means below 30%; also: 0% is about no effect
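Cells expressing TRPV1 were dye-loaded with Fluo-8 and read kinetically: 10 s baseline, 3 min after compound (agonist portion), then 2 min after EC20 capsaicin (allosteric enhancer portion). Calcium-bound dye fluorescence at 480/520 nm.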
TRPML1 ag = human mucolipin-1 channel agonism | Q9GZU1 | TRPML1-expressing cells, Ca2+ dye fluorescence, FDSS; host cell line not named in the record; reference of the full effect not given here | activation, % (concentration not given with the values) | hit rate 0.12% among 410,000; in the data active = activation above about 50%; inconclusive = about 30% to 50%; inactive = below about 30%; also: 0% is about no effect; the text of the record puts the active cut at 80%
Target sequence (Q9GZU1 whole entry, looked up): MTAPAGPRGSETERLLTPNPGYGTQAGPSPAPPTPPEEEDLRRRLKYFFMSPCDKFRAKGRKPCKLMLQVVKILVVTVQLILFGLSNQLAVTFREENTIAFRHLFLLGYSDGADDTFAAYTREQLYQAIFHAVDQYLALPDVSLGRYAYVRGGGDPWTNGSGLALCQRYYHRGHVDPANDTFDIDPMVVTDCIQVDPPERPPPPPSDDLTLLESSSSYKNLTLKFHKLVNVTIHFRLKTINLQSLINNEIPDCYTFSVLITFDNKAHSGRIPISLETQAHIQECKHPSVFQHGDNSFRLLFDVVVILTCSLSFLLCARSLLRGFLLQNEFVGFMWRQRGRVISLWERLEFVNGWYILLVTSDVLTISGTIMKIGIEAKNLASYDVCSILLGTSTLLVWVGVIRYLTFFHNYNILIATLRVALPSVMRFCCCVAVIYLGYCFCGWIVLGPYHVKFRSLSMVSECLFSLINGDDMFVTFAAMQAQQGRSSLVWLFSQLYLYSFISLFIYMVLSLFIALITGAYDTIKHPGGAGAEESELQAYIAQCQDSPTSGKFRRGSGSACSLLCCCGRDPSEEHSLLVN
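Kinetic FDSS Ca2+ read in Tet-induced TRPML1-DL cells (ABD Ca8 dye plus quencher, 45-90 min RT loading): baseline, then compound, then 110 s agonist window; EC80 agonist 54-4 at 4uM final added afterwards for a 110 s antagonist window.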
TRPML1 blocker = blocks the human TRPML1 channel. Q9GZU1. TRPML1-inducible cells, Ca2+ dye fluorescence, FDSS; active compounds read low; inhibition of EC80 agonist-evoked calcium signal. activity change, negative = inhibition, % (test concentration not listed). hit rate 0.02% among 390,000. AID 624415; in the data active means activity change below about -50%; inconclusive means about -30% to -50%; inactive means above about -30%;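 also: stimulus is agonist 54-4 at its EC80 concentration; % is scaled to controls: 0 for no effect and ±100 for the full control effect; compound concentration not given in the record; the text of the record puts the active cut at -80%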
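Calcium fluorescence in TRPML1-DL cells induced overnight with Tet: a 110 s read after compound pin addition, then a 110 s antagonist read after challenge with 54-4 at 4 uM final (EC80).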
Six1-Eya2 inh = blocks human Six1 binding to Eya2. Q15475+O00167. AlphaScreen GST-Six1/His-Eya2 binding, biochemical; active compounds read low; control for the full effect not named in the record. activity change, % (concentration not given with the values). hit rate 0.56% among 360,000. AID 651725; in the data active = activity change below about -65%; inconclusive = about -30% to -65%; inactive = above about -30%; also: % is scaled to controls: 0 for no effect and ±100 for the full control effect
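Homogeneous AlphaScreen proximity assay pairing GST-Six1 with His-tagged Eya2 (added as 5X mix: 250 nM and 500 nM) in 50 mM Tris pH 8.0, 300 mM NaCl, 1 mM TCEP. Glutathione donor and nickel acceptor beads; 1 h, 37 °C, dark.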
An asterisk follows results filed as active; ? = inconclusive; nt = no result given; & = joins results of further samples.

SMILES	CtBP-E1A blk	D2 PAM	TRPV1 PAM	TRPML1 ag	TRPML1 blocker	Six1-Eya2 inh
CCOc1cc(/C=N/NC(=O)c2cccc(S(=O)(=O)N3CCOCC3)c2)ccc1OCC(=O)N(C)C	5.2	6.9	15.2	3.6	18.2	-8.3
Cn1c(=O)c2c(nc(SCc3cccnc3)n2Cc2ccccc2)n(C)c1=O	-8.4	1.9	1.2	0.9	4.0	-8.1
CCN(CC)S(=O)(=O)c1ccc(C(=O)OCC(=O)c2ccc3c(c2)NC(=O)CO3)cc1	-1.0	-8.1	nt	0.7	-6.6	4.9
[O-][n+]1c2ccc3nonc3c2nn1-c1ccccc1Cl	20.0	-4.7	20.1	-0.4	6.8	0.7
COc1ccccc1N(CC(=O)NCCN1CCOCC1)S(=O)(=O)c1ccc(C)cc1	-15.6	-10.9	10.2	0.6	16.6	14.0
Cn1nc(C(C)(C)C)cc1NC(=O)C1(C)CCN1C(=O)C1(c2ccccc2)CCCC1 (configuration not stated)	0.9	-9.0	nt	-0.4	7.5	0.6
O=C(NCN1C(=O)C2C3C=CC(C3)C2C1=O)Nc1ccccn1 (configuration not stated)	3.3	-15.9	3.6	0.4	-13.7	-4.3
COc1cccc(CN2CC(C(=O)N(C)CCc3ccccc3)CCC2=O)c1 (configuration not stated)	1.6	-7.3	16.0	-0.4	13.5	4.6
O=C(CCCN1C(=O)/C(=C/c2cccs2)SC1=S)NNC(=O)c1ccccc1O	-10.4	-5.4	11.7	2.2	6.2	2.0
Cc1ccc(S(=O)(=O)NC(C)C(=O)NCc2ccc(Cl)cc2)cc1 (configuration not stated)	7.8	-3.6	nt	2.8	12.9	2.3
CCCC(=O)N1CCC1(C)C(=O)Nc1cc(-c2ccccc2)nn1C (configuration not stated)	2.9	-7.5	nt	-0.3	nt	-6.2
Cc1cc(NC(=O)CN2CCCCC2)n(-c2ccccc2)n1	nt	0.4	-3.9	1.9	25.3	-3.0

Structures from the list above that contain a halogen (2):
SMILES	CtBP-E1A blk	D2 PAM	TRPV1 PAM	TRPML1 ag	TRPML1 blocker	Six1-Eya2 inh
[O-][n+]1c2ccc3nonc3c2nn1-c1ccccc1Cl	20.0	-4.7	20.1	-0.4	6.8	0.7
Cc1ccc(S(=O)(=O)NC(C)C(=O)NCc2ccc(Cl)cc2)cc1 (configuration not stated)	7.8	-3.6	nt	2.8	12.9	2.3

Next part
SMILES	CtBP-E1A blk	D2 PAM	TRPV1 PAM	TRPML1 ag	TRPML1 blocker	Six1-Eya2 inh
COC(=O)Cn1nc(-c2ccccc2)c2ccccc2c1=O	8.1	-22.1	-3.6	-0.3	-6.7	2.1
CN1CCN(c2cccc3c2S(=O)(=O)N[C@@H](Cc2ccccc2)CO3)CC1	2.8	nt	nt	0.6	nt	-1.3
CN(C)CC(O)COc1cc2ccccc2cc1C(=O)N1CCCCC1 (configuration not stated)	-1.5	-11.8	-0.9	-0.9	21.2	-0.8
CC1CCCCC1NC(=O)COc1ccc(-n2cnnn2)cc1 (configuration not stated)	1.4	-0.5	3.2	-0.5	76.0	1.0
CCOc1ccc(NC(=O)CN(C)C(=O)c2cc3c(s2)CCC(C)C3)cc1OCC (configuration not stated)	-13.0	-2.2	11.5	0.5	-2.6	-14.6
C[C@]12c3[nH]c4ccccc4c3CCN1C(=O)C(CC(=O)NCCc1ccccn1)C[C@@H]2C(=O)N1CCOCC1 (some centres not stated)	3.2	nt	nt	-0.1	-3.9	-2.1
COCOCCn1cc(CN2CCS(=O)(=O)N(Cc3ccc(-c4ccc(OC)cc4)cc3)C(C)C2=O)nn1 (configuration not stated)	-21.7	-2.4	nt	-0.3	3.9	2.2
CC(C)OC(=O)CSc1nc(Cc2ccccc2)nc2ccccc12	17.3	-2.1	1.5	-0.1	0.4	23.0
O=C(CCNC(=O)c1ccc(Br)o1)NC1CCCC1	4.5	-2.5	-9.2	0.4	-7.4	0.6
O=C(Oc1ccc(Cl)c2cccnc12)C12CC3CC(CC(C3)C1)C2	-22.4	1.2	3.5	-0.4	40.1	?
COc1ccc(CNC(=O)CS(=O)Cc2nc(-c3ccc(OC)c(OC)c3)oc2C)cc1 (configuration not stated)	nt	-4.6	?	0.6&-0.7	9.0&13.5	-1.1
COc1cccc(CNC(=O)N2CCN(S(=O)(=O)c3ccc(Cl)cc3)CC2)c1	-2.6	-6.8	-11.6	-0.4	-25.5	21.8

Three compounds from above, sorted by molecular weight, low to high.
SMILES	CtBP-E1A blk	D2 PAM	TRPV1 PAM	TRPML1 ag	TRPML1 blocker	Six1-Eya2 inh
COc1cccc(CNC(=O)N2CCN(S(=O)(=O)c3ccc(Cl)cc3)CC2)c1	-2.6	-6.8	-11.6	-0.4	-25.5	21.8
CCOc1ccc(NC(=O)CN(C)C(=O)c2cc3c(s2)CCC(C)C3)cc1OCC (configuration not stated)	-13.0	-2.2	11.5	0.5	-2.6	-14.6
COc1ccc(CNC(=O)CS(=O)Cc2nc(-c3ccc(OC)c(OC)c3)oc2C)cc1 (configuration not stated)	nt	-4.6	?	0.6&-0.7	9.0&13.5	-1.1

Remaining list, next part.
SMILES	CtBP-E1A blk	D2 PAM	TRPV1 PAM	TRPML1 ag	TRPML1 blocker	Six1-Eya2 inh
CCOC(=O)c1sc(NS(=O)(=O)c2ccc(NC(C)=O)cc2)nc1C	-0.9	-9.8	7.5	0.4	-3.1	-0.9
CN(C)c1ccc(CC(=O)N2CCCCC2c2cc(C(=O)Nc3ccccc3)no2)cc1 (configuration not stated)	-7.7	-6.6	nt	-0.5	nt	-22.3
O=C(Cn1cnc2c(nnn2Cc2ccccc2)c1=O)Nc1ccc2c(c1)OCCO2	5.9	3.4	3.4	0.3	-8.0	2.7
CC1CC(CCN)(c2ccccc2)C(C)CN1C (configuration not stated)	-0.7	-1.0	-6.3	0.0	30.9	1.6
COc1ccc(CCNC(=O)Cn2cc(C(F)(F)F)cc(Cl)c2=O)cc1	nt	-8.6	?	0.3	11.5	4.8
CC(=O)Nc1cccc(C(=O)OCC(=O)NC(=O)NC2CCCC2)c1	-1.7	-2.7	nt	1.3	32.6	6.4
O=C(COc1ccccc1[N+](=O)[O-])NCCCN1CCCC1=O	-1.8	-0.7	4.4	1.8	-27.3	2.0
CCOc1ccc(NC(=O)N(Cc2cn(CC)c3ccccc23)C2CCCCCC2)cc1	nt	nt	0.3	1.9	9.9	nt
CSc1ccccc1NC(=O)Cn1nc([N+](=O)[O-])cc1C	7.9	-3.3	-1.5	0.1	-20.7	1.6
COc1ccccc1/C=C/C1NC(=O)NC(C)=C1C(=O)OC(C)C (configuration not stated)	3.8	-9.7	-7.8	-0.2	-3.9	-0.7
CCCn1c(N)c(N(CCOC)C(=O)c2cc(S(=O)(=O)N3CCCCCC3)ccc2OC)c(=O)[nH]c1=O	-4.9	-5.6	1.2	-0.3	21.4	14.6
Cc1ccc(CNC(=O)CS(=O)Cc2nc(-c3ccccc3Cl)oc2C)cc1 (configuration not stated)	nt	-9.9	18.8	1.5	-7.6	-12.4
CCNC(=O)CCn1nc(-c2ccc(C)cc2)c2ccccc2c1=O	2.8	5.0	5.0	-0.4	15.2	6.8
Cc1ncc(CSc2nnnn2-c2ccccc2)c(N)n1	9.8	-15.2	6.1	-0.4	-5.9	-0.7
O=C(Nc1cccc(S(=O)(=O)NC2=NCCC2)c1)c1ccccc1OC(F)F	9.9	3.2	8.7	-0.5	-4.1	4.3
O=C1C(c2ccncc2)=C(O)c2ccccc21	?	1.7	13.2	-0.6	8.4	?
Cc1ccc(S(=O)(=O)NC(=O)NCc2ccco2)cc1	-8.1	-6.1	nt	0.0	-8.6	-9.7
CNS(=O)(=O)c1cccc(C(=O)OCC(=O)Nc2ccc(OC)cc2[N+](=O)[O-])c1	nt	-0.8	2.4	0.6	-2.3	-19.2
Cn1c(O)c(C(C#N)=C2N=c3ccccc3=N2)c2ccccc21	11.4	22.8	-0.9	-0.6	-13.4	2.9
C=C1CC(COc2ccc3c(C)c(Cl)c(=O)oc3c2)(c2ccccc2)OC1=O (configuration not stated)	0.0	-30.0	nt	0.8	-2.5	-4.2
CCc1ccc(C(=O)COC(=O)C2=NN(c3ccccc3)C(=O)CC2)cc1	4.1	-0.8	nt	2.0	1.1	-1.1
CCN1CCN(Cc2ccc(C(=O)Nc3ccc(C)c(NCc4cnc(NC(=O)OC)cn4)c3)cc2C(F)(F)F)CC1	0.8&-5.7	1.2&-3.9	-9.1	0.0&-0.1	-2.6&3.9	2.7&-1.0
NC(=O)CN1CCN(S(=O)(=O)c2ccc(Br)cc2)CC1	-2.5	-24.0	-0.5	-1.2	75.7	16.6
CN(C)c1cc(N/N=C/c2ccccc2C(F)(F)F)nc(N(C)C)n1	1.9	-20.3	-1.8	0.0	-8.8	-3.6
COc1ccc(C(=O)c2ccc([N+](=O)[O-])cc2)cc1S(=O)(=O)N1CCC(C(=O)O)CC1	nt	1.9	3.4	-0.6	13.8	1.0
CN1C(=O)Cn2c1nc1ccccc12	-4.0	-6.9	7.2	0.1	13.8	-8.7
Cc1ccc(S(=O)(=O)N2CCC(C(=O)NCCc3ccccc3)CC2)cc1	0.3	1.5	0.8	1.7	0.1	4.3
O=[N+]([O-])c1cc(Cl)c2cccnc2c1O	-91.5*	-14.9	6.8	3.2	-2.8	-81.3*
N#CC1=C(N)n2c(s/c(=C\c3ccco3)c2=O)=C(C#N)C1c1ccco1 (configuration not stated)	?	-1.8	-5.6	0.9	20.1	-71.3*
COc1ccc(CC(=O)N2CCCC(CNC(=O)c3ccccc3Cl)C2)cc1 (configuration not stated)	nt	-3.9	-11.2	0.7	-10.8	-0.3
CS(=O)(=O)Nc1ccc(C(=O)N2CCCC2)cc1	2.5	-8.1	-2.1	-0.2	4.3	2.7
CCCCOc1ccccc1C1C(C(=O)OC)=CN(CC)C=C1C(=O)OC	60.3	-3.8	-23.3	-0.3	31.2	71.2
O=C(CCC(=O)Nc1ccccc1)NNC(=O)C(c1ccccc1)c1ccccc1	0.5	-11.7	-25.0	0.8	-20.4	5.8
COc1cccc(/C=C2\SC(=S)N(C(Cc3ccccc3)C(=O)O)C2=O)c1 (configuration not stated)	1.3	-5.2	6.1	-0.4	-6.3	7.8
CCc1ccc(NS(=O)(=O)c2ccc3[nH]c(=O)[nH]c3c2)cc1	5.0	1.6	-5.5	-0.7	-3.0	-2.1
N#Cc1ccc(-c2cccc3nccn23)cc1	4.2	-4.5	nt	-0.5	nt	4.4
N#CC(=C1CCCC1)c1nc(-c2ccc(Cl)cc2)cs1	9.9	3.0	3.0	-0.1	0.5	10.8
CC1CCN(C(=O)COC(=O)c2cc3ccccc3cc2O)CC1	1.0	9.8	6.4	1.3	-7.0	2.1
CC(C)(C)c1ccc(C(=O)CCCSC2=C(C#N)C(c3ccco3)C3=C(CCCC3=O)N2)cc1 (configuration not stated)	-5.7	-7.7	13.2	-0.1	2.9	-4.2
Cc1ccc2nc(Cl)c(/C=N/NC(=O)c3ccccc3O)cc2c1	-2.7	-15.0	4.2	0.4	2.7	-8.1
COc1ccccc1CC(NC(C)=O)C(=O)NC1CCN(C(=O)Nc2ccccc2F)CC1 (configuration not stated)	0.2	2.4	1.6	-0.3	-3.7	-2.2
C=CCn1c(N)c(C(=O)Nc2ccccc2OC)sc1=S	-17.7	4.2	14.6	1.3	5.8	-20.7
O=C(CN1CCOCC1)NCCC12CC3CC(CC(C3)C1)C2	3.5	27.1	-7.9	0.6	15.2	3.1

Outcome played no part in choosing rows; overall some 0.95% were active at least once.
